PABP FP inh: PABP-poly(A) binding inhibition. P11940. PABP-poly(A) RNA binding, fluorescence polarization. inhibition, % at 35 µM. 1% of 290,000 active;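 active = 50% or more with normal probe brightness, or confirmed in later tests; inconclusive = above 50% with abnormal brightness, or retests that disagree; inactive = below 50% or failed in later tests; about a fifth of its hits are not listed in these tables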;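 note: calls also rest on retests at 20 µM and on dose response follow-up; controls were probe without protein and protein plus probe with vehicle; some compounds called inactive have numbers as strong as hits; many hits fall short of the cut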
Target sequence (P11940 whole entry, looked up): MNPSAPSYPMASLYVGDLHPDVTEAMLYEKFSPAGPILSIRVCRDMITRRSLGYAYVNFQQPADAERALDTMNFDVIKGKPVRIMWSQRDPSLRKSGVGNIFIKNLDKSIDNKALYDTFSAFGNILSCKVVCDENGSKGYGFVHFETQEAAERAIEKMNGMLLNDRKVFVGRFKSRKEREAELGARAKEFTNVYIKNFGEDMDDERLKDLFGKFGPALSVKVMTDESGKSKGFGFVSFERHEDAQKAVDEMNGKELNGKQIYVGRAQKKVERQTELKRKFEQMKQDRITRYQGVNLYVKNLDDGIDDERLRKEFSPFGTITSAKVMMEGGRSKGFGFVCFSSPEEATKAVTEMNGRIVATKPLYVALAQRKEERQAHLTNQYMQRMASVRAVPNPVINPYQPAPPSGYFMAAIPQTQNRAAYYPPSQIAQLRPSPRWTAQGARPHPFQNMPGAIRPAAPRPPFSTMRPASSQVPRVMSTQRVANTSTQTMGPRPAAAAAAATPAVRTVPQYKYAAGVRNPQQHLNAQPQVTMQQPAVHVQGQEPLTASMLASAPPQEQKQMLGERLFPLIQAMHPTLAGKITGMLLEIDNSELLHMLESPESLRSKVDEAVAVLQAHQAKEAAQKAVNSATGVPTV
Env fusion inh: HIV envelope-mediated fusion inhibition; HeLa-JRFL Env/CEM21 cell fusion, luciferase; inhibition, % at 12.3 µM; 1.1% of 360,000 active; AID 651610;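 active = mean replicate inhibition score of at least 50 and every replicate individually at or above 50; inconclusive = only one of the two criteria met; inactive = mean below 50 and not all replicates reaching 50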;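 note: 0% = plate neutral controls and 100% = maraviroc near 300 nM; one replicate is shown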
Yeast UUG start: modulators of start codon recognition fidelity in yeast | AID 602363 | activity score, % at 18.7 µM | S. cerevisiae UUG-firefly luciferase reporter, luminescence/redox ratio | 0.13% of 350,000 active;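 active = replicate mean at a twofold rise or more, about +100% in these data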;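 note: firefly luciferase made from a UUG start codon reports start codon fidelity; reporter light over untreated wells divided by growth signal over untreated wells; some hits fall short of that in this replicate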
CSC inhib: cancer stem cell inhibition. cancer stem cell-like cells viability, luminescence. inhibition, % at 7.5 µM. 1.1% of 300,000 active;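 active = mean at 75% or more and at least half the replicates too; inconclusive = mean and replicates disagree; tested in HMLE shEcad cells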;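 note: 0% = median of negative and 100% = median of positive control wells; the first replicate is given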
MT1-MMP act inh: MT1-MMP (human) activation inhibition; HT1080 RFP-PRO-GFP cells, GFP/RFP ratio fluorescence, overnight; percent of plate control window, DMSO zero; GFP/RFP ratio change, % at 20 µM; 0.061% of 360,000 active; AID 651647;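 active = GFP/RFP ratio change of at least 30% with cell ATP level not reduced by more than half and red fluorescence within 50% of control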; note: strong numbers were not always called active
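Assay system – RFP-PRO-GFP reporter HT1080 cells · Compound dosing – single dose of 20 µM compound, 1% DMSO final · Incubation – overnight compound exposure at 37 °C · Measure – GFP/RFP fluorescence ratio · Benchmarks – DMSO wells and RFP-L50D-GFP cells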
eIF4H inh: inhibitors of RNA binding by human eIF4H. Q15056. eIF4H fluorescence polarization binding assay. inhibition, % at 35 µM. 0.94% of 290,000 active. AID 2012;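 active = 50% or more with normal probe brightness, or confirmed in later tests; inconclusive = above 50% with abnormal brightness, or retests that disagree; inactive = below 50% or failed in later tests; about a fifth of its hits are not listed in these tables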;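 note: calls also rest on retests at 20 µM and on dose response follow-up; 0% = protein and probe with vehicle and 100% = probe without protein; strong numbers were not always called active; many hits fall short of the cut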
Rce1 inhib: yeast Ras-converting enzyme inhibition | Q03530 | yeast membranes, quenched prenylated peptide cleavage fluorescence | calls only | 0.27% of 290,000 active | AID 2563;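 active = fall in fluorescence gain of 50% or more versus controls, with final raw signal at or below 3038400; inconclusive = same 50% fall but final raw signal above 3038400; inactive = fall in fluorescence gain under 50%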;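 note: plate controls were neutral control wells for no effect and wells lacking membranes for full effect; tested at 10 µM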
Target sequence (Q03530 whole entry, looked up): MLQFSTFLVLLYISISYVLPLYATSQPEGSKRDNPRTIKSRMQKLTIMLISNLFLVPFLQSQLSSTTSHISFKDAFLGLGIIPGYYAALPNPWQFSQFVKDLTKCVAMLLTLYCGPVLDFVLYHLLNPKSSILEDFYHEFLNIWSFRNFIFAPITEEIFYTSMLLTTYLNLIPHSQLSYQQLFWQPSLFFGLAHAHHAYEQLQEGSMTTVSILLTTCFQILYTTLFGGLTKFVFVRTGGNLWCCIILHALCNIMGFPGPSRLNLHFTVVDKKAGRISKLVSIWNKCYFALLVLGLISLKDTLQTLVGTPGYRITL
MT1-MMP act inh RFP: further read-out of MT1-MMP act inh, marked with its call; RFP signal change, %; measured here: RFP expression control read;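 0 = vehicle wells; hits needed this value within 50% of zero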
The depositor's hits bear a star; i = inactive; u = inconclusive; x = not tested or not shown. Hits appear at their usual frequency (roughly 3% active in at least one column).

Preview:
SMILES	PABP FP inh	Env fusion inh	Yeast UUG start	CSC inhib	MT1-MMP act inh	MT1-MMP act inh RFP	eIF4H inh	Rce1 inhib
CCOc1ccccc1NC(=O)COC(=O)c1ccc2ccccc2n1	x	6.3	-13.5	-14.0	-7.4	2.8	x	x
CC(C)(C)NC(=O)CCc1ncc(C(F)(F)F)cc1Cl	15.5	11.0	-12.6	-7.8	9.9	3.2	-13.2	i
O=C(N/N=C/c1ccccn1)c1cc(C2CC2)[nH]n1	4.0	-31.1	-6.1	-16.4	4.9	4.2	0.3	i

Main list, from the first entry:
SMILES	PABP FP inh	Env fusion inh	Yeast UUG start	CSC inhib	MT1-MMP act inh	MT1-MMP act inh RFP	eIF4H inh	Rce1 inhib
CCOc1ccccc1NC(=O)COC(=O)c1ccc2ccccc2n1	x	6.3	-13.5	-14.0	-7.4	2.8	x	x
CC(C)(C)NC(=O)CCc1ncc(C(F)(F)F)cc1Cl	15.5	11.0	-12.6	-7.8	9.9	3.2	-13.2	i
O=C(N/N=C/c1ccccn1)c1cc(C2CC2)[nH]n1	4.0	-31.1	-6.1	-16.4	4.9	4.2	0.3	i
O=C(O)c1cccc(S(=O)(=O)N(Cc2ccccc2)c2ccccc2)c1	35.0	-3.8	x	-15.2	-1.1	0.9	4.3	i
CCCCC(CC)C(=O)Nc1ccc(C)c(O)c1 (stereo not drawn)	-3.0	10.2	x	-8.7	10.1	4.0	-7.7	i
CCCCOc1nc2ccccc2nc1NS(=O)(=O)c1ccc(F)cc1	2.3	9.6	-5.7	14.0	-6.1	-1.2	28.3	i
COc1ccc(-c2csc(N3CCC(C(N)=O)(N4CCCCC4)CC3)n2)cc1	0.5	x	4.0	-0.4	2.9	-10.3	-2.0	i
O=C(CSc1nnc(Nc2ccccc2F)s1)Nc1cccc(S(=O)(=O)N2CCCCC2)c1	-19.0	-61.8	-10.8	4.6	-13.3	-19.5	-3.8	i
CCOC(=O)C1CCN(C(=O)COc2ccc(N(C)S(=O)(=O)c3cccs3)cc2)CC1	-4.5	x	10.5	-5.7	3.3	-10.6	-6.2	i
CCN(CC)C(=O)C(Cc1ccccc1)N1C(=O)c2ccccc2C1=O (stereo not drawn)	3.6	x	-1.4	-4.6	0.3	2.6	-0.3	i
CC(=O)c1ccc(S(=O)(=O)N(C)CCCC(=O)N(C)Cc2c(F)cccc2Cl)cc1	4.4	15.3	-7.1	-8.2	2.0	0.0	-2.3	i
CSc1nc(C(=O)N2CCCC(Nc3ccc(C)c(C)c3)C2)cs1 (stereo not drawn)	-8.4	15.0	-18.5	-5.1	1.4	-0.7	-8.7	i
c1cc(-c2noc(CCC3CCCC3)n2)ccn1	0.5	x	-22.0	-2.1	-3.3	0.2	-4.3	i
CC(C)Cn1c(N)c(C(=O)COC(=O)C2=COCCO2)c(=O)n(C)c1=O	x	-6.0	-15.7	x	2.1	3.4	x	i
O=c1ccc(C(F)(F)F)cn1Cc1cc(=O)n2ccsc2n1	14.3	-30.4	x	-0.4	0.4	6.6	8.7	i
CC(=O)NC(CC(=O)NCc1ccncc1)c1ccccc1 (stereo not drawn)	-4.9	-14.5	2.0	10.9	-3.5	1.8	-2.0	i
Fc1cccc(Nc2ncnc3[nH]ncc23)c1	13.6	3.9	x	-11.1	-8.3	-8.4	7.6	i
Cc1nn(C)c(C)c1S(=O)(=O)N(CC(=O)Nc1ccc2c(c1)OCO2)c1ccc(C(C)C)cc1	0.6	34.1	-14.5	-4.8	-2.1	-0.6	11.6	x
Cc1ccc(-n2nc3c(=O)n(C(C)C(=O)NCCc4cccs4)nc(C)c3c2C)cc1 (stereo not drawn)	x	x	0.3	-6.5	2.5	-29.3	x	i
O=c1nc2ccccc2c(NS(=O)(=O)c2ccc(Cl)cc2)n1-c1ccccc1	-1.5	-19.7	-8.3	x	9.3	-0.1	-10.2	i
Clc1ccc(Cn2c(CN3CCCC3)nc3ccccc32)cc1	4.9	x	x	8.1	x	x	3.3	i
CC(=O)Nc1ccc(S(=O)(=O)NCC(=O)OCc2ccccc2)cc1	-1.0	x	-8.6	18.8	-2.6	7.0	-4.7	i
Cc1c(C(=O)O/N=C(\N)c2ccccn2)cccc1[N+](=O)[O-]	-0.4	-56.6	x	2.3	0.3	-0.3	-0.9	i
Cc1ccc(-n2c(C)cc(C)c(C#N)c2=O)cc1C	2.3	-0.2	x	1.9	0.8	0.2	0.2	x
Cc1cc(=O)oc(C)c1C(=O)Nc1c(C)n(C)n(-c2ccccc2)c1=O	8.1	-40.3	-5.6	2.1	2.1	4.3	8.4	i

Next part
SMILES	PABP FP inh	Env fusion inh	Yeast UUG start	CSC inhib	MT1-MMP act inh	MT1-MMP act inh RFP	eIF4H inh	Rce1 inhib
CCn1c(SCC(=O)Nc2ccc3c(c2)OCO3)nc2c(c1=O)SC(C)C2 (stereo not drawn)	2.2	-12.9	-11.5	-23.9	2.3	2.9	3.7	i
COc1ccc(C(=O)Nc2cccc(C(C)=O)c2)cc1S(=O)(=O)N1CCOCC1	-3.4	x	0.0	1.6	4.3	6.7	-1.6	i
CCc1c(C)n([O-])c2c([n+]1=O)CCC2	4.9	x	-20.3	-7.8	2.5	7.5	2.1	i
COc1ccc(Cl)cc1N1C(=O)C2CCCN2C1c1sccc1C (stereo not drawn)	2.3	-244.2	-17.4	-10.4	-1.8	3.6	-0.7	i
COc1ccc([C@H]2CC(=O)C=C(c3c(OC)cccc3OC)C2)cc1	x	33.9	-15.5	53.0	-4.8	-5.5	x	x
O=C(CCNS(=O)(=O)c1ccccc1C(F)(F)F)N1CCN(c2ccccc2O)CC1	x	-69.7	x	-12.9	-3.3	3.1	x	i
CC(=NN1CC(=O)NC1=O)c1ccc([N+](=O)[O-])o1	x	-10.1	-14.9	x	-2.6	-12.7	x	x
O=C(Nc1ccccc1N1CCCCC1)c1ccc(Cl)c([N+](=O)[O-])c1	14.6	8.0	-4.5	79.8*	-2.4	-4.2	-1.3	i
COc1cccc(C(C(=O)NC2CCCC2)N(Cc2ccc(C)cc2)C(=O)c2ccco2)c1OC (stereo not drawn)	0.8	x	14.0	x	-4.3	-3.5	5.3	i
COc1ccc(N(CC(=O)NCCSc2ccccc2)S(=O)(=O)c2ccccc2)c(OC)c1	x	25.9	-5.6	-11.3	-1.6	-9.5	x	x
O=C(O)CCN1CCc2ccccc2C1c1cccs1 (stereo not drawn)	-9.3	23.0	x	-16.2	1.8	3.2	-8.1	x
c1ccc(Nc2nc(N3CCCCC3)nc(N3CCCCC3)n2)cc1	2.5	-19.7	-11.0	-7.7	7.2	-2.2	-4.3	i
COc1cc(CC(NC(C)=O)C(=O)NC2CCN(C(=O)Nc3ccccc3Cl)CC2)cc(OC)c1 (stereo not drawn)	-8.2	-7.7	x	-10.0	1.7	0.5	2.1	i
O=C(Nc1ccc(Cl)c(C(F)(F)F)c1)[C@@H]1CC=C[C@@H]2CCN(C3CC3)C(=O)[C@@H]21	x	-146.9	4.5	-3.5	-2.8	-7.3	x	i
COC(=O)c1ccc2c(=O)n(-c3ccc(OC)cc3)c(=S)[nH]c2c1	-1.0	-17.0	-10.2	-12.8	11.7	5.0	1.5	i
CN(C)CCCN(Cc1ccccc1)C(=S)Nc1ccc(SC(F)F)cc1	5.6	19.6	x	-18.5	-1.4	-5.0	1.1	i
O=C(N1CCOCC1)N1CCN(c2ccccn2)CC1	-8.1	x	-19.4	-1.6	-2.9	2.7	-12.7	i
CN1C(=O)[C@H]2[C@@H](C3CC3)N3C(=O)CN(CC4CC4)C(=O)[C@@]3(C)[C@H]2C1=O	6.2	-0.3	-7.9	-15.5	-0.5	1.3	8.2	i
CC(C)CCNC(=O)c1onc(CSc2ccncc2)c1C(=O)NCCC(C)C	5.2	-3.5	-0.5	42.5	-10.6	-4.7	-10.3	i
COc1cccc(NC(=O)c2ccc3c(c2)OCCO3)c1	-11.8	4.9	-63.0	x	3.0	1.0	-10.2	i
Cc1ccc(S(=O)(=O)N2CCC(C(=O)N[C@@H](C)C(=O)NCc3ccccc3)CC2)cc1	-11.6	-41.9	-17.5	-15.0	10.2	-2.9	-16.6	i
N/C(=N/OC(=O)c1ccccc1Cl)c1nonc1N	-2.8	-71.5	x	4.6	2.3	1.6	0.1	i
CCCCn1ccnc1C(=O)c1ccc(S(=O)(=O)N(CCOC)CCOC)cc1	-7.4	x	-15.3	-5.5	-5.8	-2.1	-7.0	i
CC(=O)CCC(=O)OCC(=O)c1ccc(C(F)(F)F)cc1	-5.2	16.8	-11.2	-7.5	-0.2	2.1	-5.4	i
CCOC(=O)CCNC(=O)N1CCCC(CNS(=O)(=O)Cc2ccccc2)C1 (stereo not drawn)	-7.9	-15.9	-13.3	1.9	-0.5	0.2	-8.8	i

(cont.)
SMILES	PABP FP inh	Env fusion inh	Yeast UUG start	CSC inhib	MT1-MMP act inh	MT1-MMP act inh RFP	eIF4H inh	Rce1 inhib
COc1ccc(C(=O)c2oc3ccc(OC)cc3c2NC(C)=O)cc1	5.1	1.2	x	-7.4	-1.4	-0.4	2.6	i
CN1C(=O)[C@H]2[C@@H](/C=C/c3ccccc3)N3C(=O)CN(CCO)C(=O)[C@@]3(C)[C@H]2C1=O	10.5	-15.0	-5.8	2.2	-0.6	-1.1	-0.3	i
CCc1cc2c(SCC(=O)N(CC)c3c(N)n(Cc4ccccc4)c(=O)[nH]c3=O)ncnc2s1	-0.6	-32.7	x	-10.6	-6.2	-4.6	4.0	i
O=C(NCCCO)c1cc2c(cn1)[nH]c1ccccc12	4.0	-28.5	-7.9	9.7	1.2	1.3	-12.0	i
c1ccc(-c2nc3nc4ccccc4nc3n2CC2CCCO2)cc1 (stereo not drawn)	2.0	-13.9	x	-8.1	-5.1	-7.0	-11.4	i
Cc1noc(C)c1CSc1nc2ccccc2c(=O)n1-c1ccc(Cl)cc1	-0.1	62.0*	-1.8	59.7	-6.2	-8.1	-15.7	i
COc1ccc(CNC(=O)CCN2C(=S)NC(C)(C)CC2C)cc1 (stereo not drawn)	2.3	-2.2	-23.4	-13.0	0.0	2.7	5.7	i
Cc1ccc(-c2nc(C#N)c(N3CCC(C(N)=O)CC3)o2)cc1	3.5	-24.6	-16.5	5.6	-1.1	-1.6	-10.9	i
COc1ccc(C(O)c2ncc(-c3ccccc3)[nH]2)cc1 (stereo not drawn)	x	-2.8	-17.9	x	1.1	2.2	x	x
COc1ccc(C(O)C(CN2CCOCC2)c2ccccc2)cc1F (stereo not drawn)	1.2	-1.1	7.4	-7.5	-9.1	-0.8	-0.9	i
O=C(NCCC(=O)N(CCc1ccccc1)Cc1ccccc1)c1ccccc1Cl	x	-4.8	25.4	-4.2	0.5	-2.0	x	i
CC(C)CN(CC(C)C)S(=O)(=O)N1CCC(C(=O)NCc2ccc3c(c2)OCO3)CC1	-8.7	11.5	x	11.2	0.3	0.4	11.7	i
COc1cccc(CN(C)CCCn2cnc(C(=O)Nc3ccc(C)c(C)c3)n2)c1	x	-38.7	-14.7	x	2.1	3.0	x	x
O=C(Nc1ccc(Cl)cn1)c1ccc(Oc2ccccc2)cc1	7.0	-131.5	-37.0	10.8	3.3	-12.1	-20.4	x
O=C(Nc1cccc(S(=O)(=O)NC2=NCCCCC2)c1)c1cc(-c2ccc(Cl)cc2)nc2ccccc12	18.4	-0.2	x	-0.6	-4.2	-8.0	1.1	i
Cc1ccc(NC(=O)c2cc(S(=O)(=O)N3CCCC3)cn2C)cc1C	-3.1	33.7	-11.9	9.7	-6.7	-2.3	-6.2	i
CCC(c1nnnn1Cc1ccco1)N(CCN1CCOCC1)Cc1cc2cc(C)ccc2[nH]c1=O (stereo not drawn)	28.2	x	-4.1	-12.0	-9.3	1.4	8.9	i
O=C(O)Cc1sc(-c2ccccc2Cl)nc1-c1ccccc1	u	-5.2	-25.8	-3.4	4.4	5.6	1.7	i
